Vif TR-FRET: inhibitors of Vif binding to APOBEC3G peptide, primary screen, biochemical, TR-FRET, GST-Vif 1-94, biotin-A3G peptide, dose response retest (AID 1117319); 260,000 tested, 0.57% active; TR-FRET GST-Vif / biotin-A3G peptide binding; higher % means a stronger effect; test concentration not given here; strong numbers were not always called active; Virion infectivity factor (Human immunodeficiency virus type 1 group M subtype B (isolate …; inhibition, %, or IC50 in µM where a hit was titrated;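 active = above the screen mean plus three standard deviations and confirmed in dose response; inconclusive = results disagree or hit not tested in dose response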;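 also: Vif residues 1-94 fused to GST binding biotinylated APOBEC3G peptide 110-148; 0% = full assay without inhibitor and 100% = GST in place of GST-Vif; retest series ran down from 100 µM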
FGF22 binding: binders of human FGF22 protein, primary screen, FGF22 synaptogenesis inhibitor project, biophysical, thermal shift, single point | Fibroblast growth factor 22 (Homo sapiens), Q9HCT0 | recombinant FGF22 thermal shift, SYPRO orange fluorescence; percent of sucrose octasulfate shift, DMSO zero | calls only at 9.99 µM | 340,000 tested, 1.5% active;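 active = melting point raised past a set limit in the mean and every replicate; inconclusive = no clear call; three in four hits are not shown here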
Target sequence (Q9HCT0 whole entry, looked up): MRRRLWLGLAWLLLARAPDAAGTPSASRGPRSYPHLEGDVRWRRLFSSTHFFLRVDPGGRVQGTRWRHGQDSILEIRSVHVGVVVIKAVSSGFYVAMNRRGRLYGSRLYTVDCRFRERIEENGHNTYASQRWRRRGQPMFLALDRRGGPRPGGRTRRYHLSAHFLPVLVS
MLL AF4-AF9 inh: inhibitors of AF4 peptide binding to AF9, primary screen, biochemical, AlphaScreen, biotin-AF4 peptide, FLAG-AF9, single point; Protein AF-9 (Homo sapiens), P42568; inhibition, % at 10 µM; 350,000 tested, 0.47% active; AID 651704, 2012;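 active = every replicate reaching a set inhibition limit, whatever the replicate mean, cut at about 25% in these data; inconclusive = mean inhibition reaches that limit but some replicates miss it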;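 also: 0% = plate neutral control median and 100% = total signal loss; the record names both 10 and 1 µM as test concentration; the first replicate is given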
Target sequence (P42568 whole entry, looked up): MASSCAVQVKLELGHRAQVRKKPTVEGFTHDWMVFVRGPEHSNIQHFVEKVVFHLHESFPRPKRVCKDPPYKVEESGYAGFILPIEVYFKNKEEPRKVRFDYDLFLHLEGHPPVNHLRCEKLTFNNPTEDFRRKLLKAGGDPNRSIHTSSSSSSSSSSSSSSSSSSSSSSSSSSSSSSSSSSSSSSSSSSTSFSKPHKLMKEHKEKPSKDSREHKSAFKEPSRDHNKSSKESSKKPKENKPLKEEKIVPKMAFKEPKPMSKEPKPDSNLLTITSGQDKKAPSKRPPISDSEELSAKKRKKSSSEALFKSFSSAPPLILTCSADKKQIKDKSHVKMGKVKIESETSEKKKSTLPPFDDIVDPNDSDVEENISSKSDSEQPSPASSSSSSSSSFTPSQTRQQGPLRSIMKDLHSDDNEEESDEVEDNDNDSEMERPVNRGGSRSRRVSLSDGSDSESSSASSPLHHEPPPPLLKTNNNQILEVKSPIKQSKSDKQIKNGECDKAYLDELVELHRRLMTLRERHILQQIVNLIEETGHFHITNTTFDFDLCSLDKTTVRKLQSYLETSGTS
ALR H2O2 inh: inhibitors of human ALR sulfhydryl oxidase, primary screen, biochemical, H2O2 detection, HRP-luminol luminescence, single point; FAD-linked sulfhydryl oxidase ALR (Homo sapiens), P55789; purified ALR, DTT oxidation; inhibition, % (concentration not given with the values); 290,000 tested, 3.8% active;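 active = mean and each replicate at 75% or more; inconclusive = only one of the two met; inactive = neither met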;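 also: stock transfer was 7.5 nL into about 7.5 µL; 0% = neutral wells and 100% = wells with inactivated enzyme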
Target sequence (P55789 whole entry, looked up): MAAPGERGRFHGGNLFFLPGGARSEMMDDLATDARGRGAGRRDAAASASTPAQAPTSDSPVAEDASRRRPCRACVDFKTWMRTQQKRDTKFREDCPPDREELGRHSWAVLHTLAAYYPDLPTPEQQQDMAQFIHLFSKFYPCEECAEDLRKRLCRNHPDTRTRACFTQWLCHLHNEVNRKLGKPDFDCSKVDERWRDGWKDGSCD
Ecoli growth: E. coli growth inhibition, primary screen, OD600; Escherichia coli growth, 23 h; active compounds read low; OD600 absorbance (test concentration not listed); 330,000 tested, 0.21% active; AID 1053175, 2014;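 active = OD600 absorbance below the run mean of sample wells minus 3.6 SD, in any replicate, cut at about 0.56 in these data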;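 also: stock transfer was 300 nL into about 60 µL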
HNF4A DNA FP: change in binding of human HNF4A to DNA, primary screen, biochemical, fluorescence polarization, FITC-DNA. Hepatocyte nuclear factor 4-alpha (Homo sapiens), P41235. 1 h. activity change, % at 10 µM. 360,000 tested, 0.3% active. AID 1224865, 2016; in the data active = activity change above about 30%, passing the limit was not always enough;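 also: controls were the assay level and a saturating level of protein; the project sought stronger binding though the title names inhibitors; some compounds called inactive have numbers as strong as hits; positive values seem to mean higher polarization but the record does not say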
rRNA inh HTS: reduced GFP signal of wild-type E. coli, primary screen, bacterial rRNA inhibitor project, GFP/RFP fluorescence, OD600, single point. E. coli WT GFP vs humanized-ribosome RFP mutants, 24 h; active compounds read low; DMSO median 0, no signal -100. GFP signal change (wild-type ribosome), % (no concentration beside the values). 350,000 tested, 1.6% active. AID 720706, 2013;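 active = significant combined selectivity score with lowered wild-type GFP, culture density cut under 30%, mutant RFP and density less affected; inactive = any of these conditions unmet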; also: one replicate is shown; some compounds called inactive have numbers as strong as hits
rRNA inh HTS OD600: second read-out of rRNA inh HTS, no call of its own (marks repeat the call); OD600 change, %; measured here: OD600 growth;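 optical density of the mix in the first replicate; 0 = DMSO median and -100 = no signal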
rRNA inh HTS RFP: further read-out of rRNA inh HTS, marked with its call; RFP signal change, %; measured here: RFP humanized mutant strains;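 first replicate; 0 = DMSO median and -100 = no signal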
* hit, by the source's call; i = inactive; ? = inconclusive; · = no result given; & = joins results of further samples. A portion of the library (hit frequency here may not be typical).

SMILES	Vif TR-FRET	FGF22 binding	MLL AF4-AF9 inh	ALR H2O2 inh	Ecoli growth	HNF4A DNA FP	rRNA inh HTS	rRNA inh HTS OD600	rRNA inh HTS RFP
COc1cc(OC)cc(-n2nnnc2SCC(=O)Nc2nc3c(s2)CCCC3)c1	-3%	·	·	·	0.75	1.4	·	·	·
CCOC(=O)C1=CN(Cc2ccco2)S(=O)(=O)NC1c1ccc(F)c(Cl)c1 (stereo not drawn)	1%	i	2.3	·	0.71	-2.7	-5	-9	0.3
Nc1nc2ccc(S(=O)(=O)c3ccc4nc(N)sc4c3)cc2s1	-6%	·	·	1	0.69	0.3	·	·	·
O=C(O)c1ncc(Cl)c(Cl)c1Cl	4%&1%	i	-3.3	-7&-14	0.63&0.7	-0.3&-0.1	7&5	9&-2	-0.9&-0.5
COc1ccc(Cc2c(-c3ccccc3)nc3c4ccccc4ccn23)c(C)c1	·	·	-6.7	·	·	10	1	11	3.7
CCN(c1ccccc1)S(=O)(=O)c1ccc(OCC(=O)Nc2cc(C)on2)cc1	15%	·	·	-3	0.71	-1.6	·	·	·
Cn1c(N)c(S(=O)(=O)N2CCN(Cc3ccccc3)CC2)c(=O)n(C)c1=O	·	i	2.5	-1	0.72	1.1	8	20	0.6
Cc1ccc(CNC(=O)[C@H]2C[C@@H]2[C@H](NP(=O)(c2ccccc2)c2ccccc2)c2ccccc2)o1	3%	i	2.4	2	·	-2.3	10	5	-2.7
O=C(COC(=O)c1ccc(Br)cc1)NCCc1ccccc1	-13%	·	·	6	0.71	3.0	·	·	·
COC(=O)CC1C(=O)NCCN1C(=O)Nc1ccccc1 (stereo not drawn)	?	·	·	·	0.7	1.1	·	·	·
C=CCNc1nc2c(c(=O)n(C)c(=O)n2C)n1CC(=C)C	·	i	2.7	5	0.7	4.2	12	8	-2.1
CCc1sc(C(=O)Nc2cc(S(=O)(=O)N3CCOCC3)ccc2OC)cc1C	-18%	i	-0.1	-13	0.7	-1.5	-3	6	-2.1
COc1ccc(/C=C2/NC(=O)N(CC(=O)Nc3cccc(C)c3)C2=O)cc1O	18%	·	-0.4	-12	0.65	-0.8	5	5	1.8
Cc1cccc(CNC(=O)c2sc(=O)n(Cc3c(C)cccc3C)c2C)c1	·	i	-29	·	·	2.2	-20	-18	-1.3
COc1cc(F)ccc1-c1cc(C(=O)NCc2cc(C(F)(F)F)cc(C(F)(F)F)c2)[nH]n1	·	i	6.1	·	·	1.9	13	12	-2.3
C=CCN(C(=O)c1cc(C)cc(C)c1)C1(C(=O)Nc2ccccc2)CCN(C(C)C)CC1	5%	i	3.1	-7	0.72	-0.9	0	-13	-1.5
CC(C)c1cn(CC[C@H]2CC[C@H](NS(=O)(=O)c3ccc(Cl)cc3)[C@@H](CO)O2)nn1	·	i	-1.1	·	·	·	-1	-1	-0.9
C=C(Cl)COC(=O)C1C2C=CC(C2)C1C(=O)O (stereo not drawn)	6%	·	·	-2	0.78	3.8	·	·	·
COc1ccc2c3c(n(C)c2c1)[C@@H](CO)NCC31CCN(C(=O)c2ccc(F)cc2)CC1	·	i	1.6	·	·	·	2	6	1.2
Cc1ccc(C(=O)Nc2ccccc2N2CCCCC2)cc1S(=O)(=O)N1CCOCC1	-3%	·	-7.6	·	0.72	4.5	-11	-2	-3.5
CCOC(=O)N1CCN(C(=O)C(C)NC(=O)c2ccco2)CC1 (stereo not drawn)	·	i	-2.3	0	0.65	2.5	-1	4	-2.7
CC=Cc1ccc2n(c1=O)C[C@H]1[C@H](CO)[C@@H](C(=O)NCCc3ccccc3)[C@@H]2N1C (mixture of isomers)	·	i	1.6	·	·	·	0	-5	-0.5
O=C(NCC1CCCN1S(=O)(=O)c1cccs1)C(=O)Nc1ccccc1 (stereo not drawn)	-8%	i	11	-5	0.62	5.5	-4	0	2.8
O=C1CCC(=O)N1CN(C(=O)c1ccco1)c1ccc(Cl)c(Cl)c1	4%&3%	·	·	-3	0.66	-3.0	·	·	·
Cc1ccc(NC2CCCN(C(=O)CN3C(=O)CSC3=O)C2)cc1C (stereo not drawn)	·	i	3.1	99*	0.72	1.8	11	6	-2.1

The final two compounds of the part above open the next one.
SMILES	Vif TR-FRET	FGF22 binding	MLL AF4-AF9 inh	ALR H2O2 inh	Ecoli growth	HNF4A DNA FP	rRNA inh HTS	rRNA inh HTS OD600	rRNA inh HTS RFP
O=C1CCC(=O)N1CN(C(=O)c1ccco1)c1ccc(Cl)c(Cl)c1	4%&3%	·	·	-3	0.66	-3.0	·	·	·
Cc1ccc(NC2CCCN(C(=O)CN3C(=O)CSC3=O)C2)cc1C (stereo not drawn)	·	i	3.1	99*	0.72	1.8	11	6	-2.1
Cc1ccc(C)n1-c1ccc(C(=O)N2CCC(C(N)=O)CC2)cc1	·	i	-0.8	·	0.72	0.7	12	3	-7.0
CC1Cc2ccccc2N1C(=O)CN1C(=O)NC2(CCCCC2)C1=O (stereo not drawn)	2%	i	-0.4	·	0.7	3.6	2	0	-3.3
CCCN1CCN(C(=O)CCCn2c(C)c3cnn(-c4ccccc4)c(=O)c3c2C)CC1	1%	i	-7.0	2	0.69	-0.8	5	13	-0.2
O=C(Cn1c(NCCO)nc2ccccc21)Nc1ccc2c(c1)OCCCO2	6%	i	-2.2	·	0.67	2.0	3	5	-0.5
C[C@H](CO)N1C[C@H](C)[C@H](CN(C)C(=O)C2CCCCC2)Oc2cc(-c3cncnc3)ccc2S1(=O)=O	·	i	-6.7	·	·	·	-1	-2	-1.3
CC(C)(C)OC(=O)NNC(=S)NC1CCCCC1	-3%	i	-1.0	·	0.71	-6.0	10	9	-0.1
CCCCCC(O)(CCCCC)C(=O)NNc1ccccc1	-10%	·	·	-3	0.76	1.3	·	·	·
N=C1C(c2nc3ccccc3s2)=C(O)CN1C1CCCCC1	-22%	i	-0.7	-3	0.71	-2.9	0	6	-2.6
Cn1cnc([N+](=O)[O-])c1Nc1ccc(O)cc1	12%	·	·	68	0.68	-1.8	·	·	·
Cc1cccc(Nc2ncnc3c2cnn3Cc2ccccc2)c1	2%	·	·	-7	0.71	0.9	·	·	·
COc1ccccc1OCC(O)CN1CCN(C(=O)c2ccccc2)CC1 (stereo not drawn)	·	i	2.0	0	0.61	2.8	2	3	1.0
COc1ccc(OC)c(NC(=O)c2ccc3c(c2)OCO3)c1	·	i	2.3	-12	0.69	0.4	-3	-3	-3.3
Nc1cc(S(=O)(=O)Nc2cc(Cl)ccc2Cl)ccc1N1CCCC1	?	i	-4.0	·	0.71	-1.9	-28	-34	-8.3
O=C(COC(=O)/C=C/c1ccccc1)NCc1ccc(Cl)cc1	-12%	·	·	9	0.72	1.5	·	·	·
C#CCOCCOCCOCCNc1nc(N2CCN(C(=O)[C@H](C(C)C)n3cc(CCO)nn3)CC2)nc(N2CCN(C(=O)[C@H]([C@@H](C)CC)n3cc(CCCCN)nn3)CC2)n1	30%	i	3.6	-3	·	-0.1	14	8	-1.8
CCOC(=O)C1=C(N)Oc2cc(O)ccc2C1c1cccc(Cl)c1 (stereo not drawn)	-3%	i	0.7	9	0.67	-1.6	-6	-3	3.1
COc1ccc(CN(C)CC(=O)Nc2ccccc2C(=O)NC2CC2)cc1OC	-20%	i	-1.1	·	0.7	-1.6	12	7	-0.8
CSCCC(NC(=O)COc1ccccc1)C(=O)OCCOc1ccc(C)cc1 (stereo not drawn)	6%	i	3.3	-7	0.66	0.4	-2	-3	0.1
O=C(NCC[C@H]1CC[C@@H](NC(=O)c2ccccc2F)[C@@H](CO)O1)c1ccc2c(c1)OCO2	·	i	-1.6	·	·	·	-1	1	1.4
C/C(CC(=O)Nc1ccc(Cl)c(C(F)(F)F)c1)=N\NC(=O)c1cc2ccccc2cc1O	?	·	·	-11	·	-4.4	·	·	·
Cc1ccc(C)c(NC(=S)NC(NC(=O)OCc2ccccc2)C(Cl)(Cl)Cl)c1 (stereo not drawn)	1%	·	·	-1	0.67	2.5	·	·	·
CO[C@H]1CN(C)C(=O)c2ccc(NS(=O)(=O)c3ccc(C)cc3)cc2OC[C@@H](C)N(C)C[C@H]1C	·	i	-0.9	·	·	·	1	0	1.6
COc1ccccc1/C=C/C(=O)N1CCN(S(=O)(=O)c2cccs2)CC1	·	i	8.7	-3	0.69	5.2	-16	-23	2.5
CC1=C/C(=N\N=C2\NC(=O)C(CC(=O)Nc3ccccc3F)S2)CC(C)(C)C1 (stereo not drawn)	-7%	·	2.8	-1	·	3.9	-20	-30	2.2
O=C(CN1CCCCCC1)N/N=C/c1cccs1	?	·	·	-1	·	2.0	·	·	·
SMILES	Vif TR-FRET	FGF22 binding	MLL AF4-AF9 inh	ALR H2O2 inh	Ecoli growth	HNF4A DNA FP	rRNA inh HTS	rRNA inh HTS OD600	rRNA inh HTS RFP
CN1OC[C@@H]2CN(Cc3ccccc3)[C@H](c3cccc(-c4ccc(C#N)cc4)c3)C[C@@H]21	-1%	i	1.0	·	·	0.4	7	-12	6.7
CCC(CC)C(=O)Nc1ccc(C(=O)c2ccccc2)cc1	-8%	·	·	-4	0.64	-0.9	·	·	·
Cc1cc(C)nc(NC(=O)Cc2ccc([N+](=O)[O-])cc2)c1	·	·	·	14	0.71	4.6	·	·	·
CCN(Cc1ccccc1)S(=O)(=O)CCNC(=O)c1ccccc1	·	·	-0.1	-13	·	-2.6	-3	4	-1.7
Cc1oc(=O)c(NC(=O)c2cccc(Cl)c2)cc1C(=O)c1ccccc1	6%	·	·	97*	0.68	-1.6	-9	-4	-0.4
COc1ccc(OCC(O)CN(C)C(=O)C(C)Oc2ccccc2)cc1 (stereo not drawn)	·	i	-0.8	-1	0.69	1.3	7	6	0.1
COc1ccc(S(=O)(=O)N2CCOCC2)cc1NC(=O)c1ccc(S(=O)(=O)N(C)c2ccccc2OC)cc1	·	i	1.5	·	0.69	-0.6	-6	-7	-6.2
CCN(C[C@H]1N[C@@](CC)(C(=O)OC)[C@H]2C(=O)N(Cc3ccccc3)C(=O)[C@@H]12)C(=O)c1ccc(C)cc1	5%	i	-3.7	·	0.7	3.2	7	-1	-1.6
COc1cccc(NC(=O)CSc2nnc(-c3cc(-c4ccccn4)nc4ccccc34)o2)c1	-2%&0%	·	·	·	0.8	-2.6	·	·	·
COCCNc1nnc(SC(C)C(=O)Nc2ccc(-c3nc4ccc(C)cc4s3)cc2)s1 (stereo not drawn)	>50µM*	·	·	-16	0.75	6.4	·	·	·
NS(=O)(=O)c1ccc(O)c(N2C(=O)c3cccc4c(C(=O)O)ccc(c34)C2=O)c1	6%	i	-14	-20	0.7	2.5	11	-2	0.2
C[C@H](CO)N1C[C@H](C)[C@H](CN(C)C(=O)Nc2cccc3ccccc23)OCCCC[C@H](C)Oc2ccc(NC(=O)NC3CCCCC3)cc2C1=O	·	i	-2.3	·	·	·	0	0	1.1
C[C@@H]1CN([C@@H](C)CO)C(=O)CCCn2nncc2CO[C@H]1CN(C)C(=O)CCC(F)(F)F	·	i	-3.1&-2.8&-2.7	·	·	0.1	3&0	4&0	-2.2&-0.3
COCCNc1nc(Nc2ccc(C)cc2C)c2sc(-c3ccccc3)cc2n1	·	i	-0.5	·	·	-0.2	1	-18	-4.5

From PubChem BioAssay
